GLA inh pH 4.5 – qHTS Assay for Inhibitors of Human alpha-Galactosidase at pH 4.5; purified enzyme, 4-MU-alpha-Gal fluorescence, pH 4.5; activity change, negative = inhibition, % at 105 µM; 230,000 tested, under 10 active; inconclusive = small, poorly fitted or top-dose-only inhibition, or a rising curve; inactive = flat fitted curve, though single readings scatter; no compound was filed as active;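 also: 0% = full activity with enzyme and -100% = basal without enzyme; dose as in the result columns while the protocol names 77 µM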
miR-21 FLuc – qHTS Assay for Modulators of miRNAs and/orActivators of miR-21 | Potency, µM (top dose mostly 38.3 µM), for inactives: at the top dose reporter change, positive = more light | HeLa miR-21 FLuc reporter, luciferase, 48 h | 340,000 tested, under 10 active; active = well fitted rising curve with a large enough effect; inconclusive = small, poorly fitted or top-dose-only effect; inactive = no such curve, though single readings can be large or run the other way;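 also: % of control where 0% means no effect; miR-21 action dims this reporter so a rising signal means less miR-21 action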
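Using DMEM plus 10% FBS, HeLa miR-21-FLuc cells are incubated with test compounds (final up to about 40uM) for 48 hours; firefly luciferase signal is then imaged following reagent-mediated lysis.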
Rango complex inh – qHTS Assay for Inhibitors of Rango (Ran-regulated importin-beta cargo) - Importin beta complex formation; Rango CFP/YFP FRET sensor + importin beta, 45 min; 340,000 tested, 0.031% active; AID 540263, 2011; Potency, µM (top dose mostly 92.2 µM), for the others: at the highest dose inhibition of complex formation; active = rising FRET ratio curve, often small or poorly fitted; inconclusive = mostly compound fluorescence or quenching in the first reads; inactive = flat curves in all reads;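 also: potency is read from the fitted curve at half-maximal effect; 0% = DMSO wells and 100% = buffer wells lacking importin beta; nearly all actives have a fitted effect of over 15% in size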
Target sequence (Q14974 whole entry, looked up): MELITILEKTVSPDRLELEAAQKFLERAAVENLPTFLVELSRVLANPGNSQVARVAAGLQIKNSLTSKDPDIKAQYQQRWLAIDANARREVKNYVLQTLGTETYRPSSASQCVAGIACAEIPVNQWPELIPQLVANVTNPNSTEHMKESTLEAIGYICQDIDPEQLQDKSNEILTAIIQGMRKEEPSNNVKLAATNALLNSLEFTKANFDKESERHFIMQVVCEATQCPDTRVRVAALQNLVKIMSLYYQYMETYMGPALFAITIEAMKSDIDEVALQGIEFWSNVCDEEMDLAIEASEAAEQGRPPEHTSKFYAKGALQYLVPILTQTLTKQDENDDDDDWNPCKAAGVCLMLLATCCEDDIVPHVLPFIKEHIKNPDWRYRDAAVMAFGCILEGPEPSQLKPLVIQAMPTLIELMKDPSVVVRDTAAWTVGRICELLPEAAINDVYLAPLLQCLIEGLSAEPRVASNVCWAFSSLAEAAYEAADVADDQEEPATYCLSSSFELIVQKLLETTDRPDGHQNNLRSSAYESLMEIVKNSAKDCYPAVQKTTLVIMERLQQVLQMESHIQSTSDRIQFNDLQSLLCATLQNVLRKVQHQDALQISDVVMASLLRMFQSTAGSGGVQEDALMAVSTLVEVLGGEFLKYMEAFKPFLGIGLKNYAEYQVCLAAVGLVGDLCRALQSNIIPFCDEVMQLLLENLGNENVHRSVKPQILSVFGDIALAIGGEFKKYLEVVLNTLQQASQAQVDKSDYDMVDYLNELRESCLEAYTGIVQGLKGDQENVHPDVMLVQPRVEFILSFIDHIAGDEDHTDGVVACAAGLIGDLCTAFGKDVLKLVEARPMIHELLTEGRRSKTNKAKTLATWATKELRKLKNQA
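FRET biosensor Rango (snurportin 1 IBB between N-terminal EYFP and C-terminal Cerulean), 50 nM in PBS/1 mM DTT/0.02% Tween-20/0.1% BSA, preincubated 5 min RT with compound; 0.125 microM importin beta added, 45 min RT, CFP/YFP FRET ratio read.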
Rango release inh – qHTS Assay for Inhibitors of RanGTP induced Rango (Ran-regulated importin-beta cargo) - Importin beta complex dissociation | Snurportin-1 (Homo sapiens) + GTP-binding nuclear protein Ran (Homo sapiens) + Importin … | Biochemical FRET Rango-importin beta, RanGTP-induced dissociation | Potency, µM (doses to about 46.1 µM), for the others: at the top dose activity change, negative = inhibition | 340,000 tested, 0.071% active | AID 540253, 2011; active means falling FRET ratio curve, often poorly fitted, with flat reads before Ran was added; inconclusive means other falling curves, or compound fluorescence or quenching; inactive means flat or rising ratio curve;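 also: potency is read from the fitted curve at half-maximal effect; % of control where 0% means no effect; nearly all actives have a fitted effect of over 45% in size; -100% = wells without RanGTP and RCC1; the record marks most hits as doubtful in a second field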
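Rango/importin beta premix (0.1/0.25 uM final), PBS + 1 mM DTT + 0.02% Tween-20 + 0.1% BSA; cpd 5 min RT; FRET pre-read; + RanGTP-RCC1 (0.6 uM Ran, 2 mM GTP, 0.2 uM RCC1); 45 min RT; FRET post-read, ex 430, em 486/530 nm.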
An asterisk follows results filed as active; ? = inconclusive; / = no result given; & = joins results of further samples.

Rango complex inh	SMILES	GLA inh pH 4.5	Rango release inh	miR-21 FLuc
-2.5%	CCCCc1nc2cc(C(=O)N3CCNC(=O)C3CC(=O)OC)ccc2o1 (centres undefined)	/	14%	-5%
-1.9%	O=C1CC(c2ccco2)Sc2ccccc2N1 (centres undefined)	/	-2%	-5%
0.4%	Cc1cccc(NC(=S)N(CCCN2CCOCC2)Cc2cn(C)c3ccccc23)c1	5	10%	-13%
?	COc1ccc(-n2nc3ccc(NS(C)(=O)=O)cc3n2)cc1Cl	10	?	-46%
0.3%	O=C(CCNS(=O)(=O)c1cccs1)N1CCN(c2ccc(F)cc2)CC1	/	4%	0%
-2.7%	Cc1ccc(S(=O)(=O)Oc2cccc(N3C(=O)C4CC=CCC4C3=O)c2)cc1 (centres undefined)	7	-9%	-2%
-3.8%	COc1ccc(-n2c(=O)c3c4c(sc3n(CC(=O)NCc3ccco3)c2=O)CCC4)c(OC)c1	-16	-6%	-4%
-0.5%	CCOc1ccc2nc(SC3CC(=O)N(c4ccc(C)cc4)C3=O)sc2c1 (centres undefined)	8	-6%	-13%
-0.9%	Cc1nn(-c2ccccc2)c(C)c1/C=N/NC(=O)CSc1nnc(SCc2cccc3ccccc23)s1	-1	2%	-5%
-0.9%	O=C(Nc1cccnc1Cl)c1cccnc1Cl	9	17%	-2%
1.5%	CC(C)Oc1cccc(C(=O)NC(=S)NCc2cccnc2)c1	-6	-4%	-16%
0.3%	CCOC(=O)CC(NC(=O)Cc1ccccc1)c1ccccc1Cl (centres undefined)	0	14%	-7%
-4.0%	CC(C)Cc1ccc(S(=O)(=O)Nc2cccnc2)cc1	/	16%	3%
-0.9%	O=C(O)c1cccc(CSc2nnc(-c3cccnc3)o2)c1	/	14%	7%
2.3%	COc1ccc(OCCNC(=O)C(Cc2c[nH]c3ccccc23)NC(C)=O)cc1 (centres undefined)	8	8%	0%
0.5%	CCCc1nnc(NC(=O)CCC(=O)N2CCC(Cc3ccccc3)CC2)s1	/	19%	3%
0.9%	O=C(Nc1cccnc1)c1ccc(CN2CCc3ccccc3C2)cc1	0	3%	15%
-0.5%	CCNC(=S)NNC(=O)Cn1nc(C)cc1C	2	0%	-6%
-4.3%	O=c1ccc(S(=O)(=O)N2CCCC2)c[nH]1	/	3%	/
-4.2%	Cc1nn(CC(=O)NCCN2CCCCCC2)c(=O)c2nn(-c3ccccc3)c(C)c12	/	-2%	0%

As entered above:
miR-21 FLuc with O=C(O)c1cccc(CSc2nnc(-c3cccnc3)o2)c1 : 7%
miR-21 FLuc with CC(C)Oc1cccc(C(=O)NC(=S)NCc2cccnc2)c1 : -16%
Rango release inh with CCOC(=O)CC(NC(=O)Cc1ccccc1)c1ccccc1Cl (centres undefined) : 14%
miR-21 FLuc with CCCCc1nc2cc(C(=O)N3CCNC(=O)C3CC(=O)OC)ccc2o1 (centres undefined) : -5%
miR-21 FLuc with CCOc1ccc2nc(SC3CC(=O)N(c4ccc(C)cc4)C3=O)sc2c1 (centres undefined) : -13%
Rango complex inh with Cc1nn(-c2ccccc2)c(C)c1/C=N/NC(=O)CSc1nnc(SCc2cccc3ccccc23)s1 : -0.9%

The listing picks up with the 6 entries that preceded the break.
Rango complex inh	SMILES	GLA inh pH 4.5	Rango release inh	miR-21 FLuc
2.3%	COc1ccc(OCCNC(=O)C(Cc2c[nH]c3ccccc23)NC(C)=O)cc1 (centres undefined)	8	8%	0%
0.5%	CCCc1nnc(NC(=O)CCC(=O)N2CCC(Cc3ccccc3)CC2)s1	/	19%	3%
0.9%	O=C(Nc1cccnc1)c1ccc(CN2CCc3ccccc3C2)cc1	0	3%	15%
-0.5%	CCNC(=S)NNC(=O)Cn1nc(C)cc1C	2	0%	-6%
-4.3%	O=c1ccc(S(=O)(=O)N2CCCC2)c[nH]1	/	3%	/
-4.2%	Cc1nn(CC(=O)NCCN2CCCCCC2)c(=O)c2nn(-c3ccccc3)c(C)c12	/	-2%	0%
2.4%	CC(=O)Nc1ccc(-c2cc(C(=O)O)c3ccccc3n2)cc1	3	11%	15%
-0.1%	O=C(OCC(=O)c1ccc[nH]1)c1ccc(C(F)(F)F)cc1	/	2%	/
1.3%	COc1cc(C(=O)OCc2cc(=O)oc3c(C)c(C)ccc23)ccc1OC(F)F	/	-18%	-1%
9.0%	Cc1cc2cc3c(N)[nH]nc3nc2cc1C	3	17%	-90%
-0.5%	O=C1CN(S(=O)(=O)c2ccccc2)CCN1	/	-1%	/
-5.7%	O=C(Nc1cccc(-c2cn3cccnc3n2)c1)c1ccco1	?	0%	-9%
0.5%	Cc1ccc(NC(=O)Cc2nnc(SCC(=O)Nc3ccc(N4CCOCC4)cc3)n2C)cc1	/	-4%	-1%
-1.7%	Cc1cc(C)c(C#N)c(SCc2ccccc2[N+](=O)[O-])n1	-15	16%	-11%
3.9%	c1ccc(-c2cc3cc4c(cc3cn2)OCO4)cc1	/	?	/
-1.2%	COCc1ccc(C(=O)NC(C)c2cnn(-c3ccccc3C)c2C)o1 (centres undefined)	2	-13%	-1%
-0.5%	CCN(CC(=O)Nc1cccc(OC)c1)CC(=O)Nc1ccc(C)cc1Cl	-6	1%	-4%
4.4%	O=C(NCCN1CCOCC1)c1sc2cc(Cl)ccc2c1Cl	/	-4%	-40%
2.2%	COCc1cc(=O)[nH]c(/N=C(\N)Nc2ccc(C)cc2C)n1	-3	-6%	-1%
0.4%	Cn1c(=O)c2c(ncn2CCNC2=NCCCCC2)n(C)c1=O	-4	2%	0%
-1.2%	COc1ccc(CNc2oc(COc3ccccc3)nc2C#N)cc1	-3	6%	-28%
0.3%	O=C1NCCCC1C(=O)N/N=C/c1ccccc1O (centres undefined)	9	13%	-6%
2.7%	O=C(CN1CCN(Cc2ccccc2)CC1)Nc1ccc2c(c1)CCC2	-8	7%	-7%
-1.5%	Cc1nn(C)cc1C(C)NC(=O)c1cc(COc2c(F)cccc2F)on1 (centres undefined)	-2	2%	-12%
2.4%	Cc1nonc1C(=O)N1CCCC(Nc2ccc(C(C)C)cc2)C1 (centres undefined)	/	-24%	-1%
-1.2%	Cc1c(O)c(=O)ccn1C	-1&2	2%	-5%&-1%

Rewritten with values ahead of the structure: entries from further up
Rango complex inh,GLA inh pH 4.5,Rango release inh,miR-21 FLuc,structure
-1.5%,-2,2%,-12%,Cc1nn(C)cc1C(C)NC(=O)c1cc(COc2c(F)cccc2F)on1 (centres undefined)
-1.2%,2,-13%,-1%,COCc1ccc(C(=O)NC(C)c2cnn(-c3ccccc3C)c2C)o1 (centres undefined)

The listing continues:
Rango complex inh	SMILES	GLA inh pH 4.5	Rango release inh	miR-21 FLuc
0.8%	CC1CN/C(=C\C(=O)c2ccccc2)C(=O)N1 (centres undefined)	-5	1%	-33%
4.1%	CC(OC(=O)C1CC(=O)N(Cc2ccco2)C1)C(=O)Nc1cccc(C#N)c1 (centres undefined)	/	19%	/
0.1%	COc1ccccc1C(=O)NC(=O)COC(=O)c1cccc(OC(F)F)c1	/	15%	/
?	CN(C)CCCN(C(=O)c1ccc(S(=O)(=O)N(C)Cc2ccccc2)cc1)c1nc2cc3c(cc2s1)OCO3	/	-13%	5%
-1.3%	COc1ccc(NC(=O)C2CCC(N3C(=O)C4CCCCC4C3=O)CC2)cc1 (centres undefined)	/	7%	4%
5.4%	CCOC(=O)Cn1c(=O)n(C2CCCC2)c(=O)c2ccccc21	-9	-11%	-2%
-1.3%	CCC(CO)Nc1ccc(-c2nn(C)c(=O)c3ccccc23)cc1[N+](=O)[O-] (centres undefined)	1	21%	-1%
1.2%	Cc1nn(C)c(C)c1S(=O)(=O)NC1CCCc2ccccc21 (centres undefined)	2	?	-2%
-4.6%	CN(CCc1ccccn1)Cc1ccc(Cl)cc1	0	9%	-3%
6.8%	Cc1cc(N2CC(C)OC(C)C2)n2cc(-c3ccccc3)nc2n1 (centres undefined)	4	-4%	-16%
5.3%	Cc1cc2ccccc2n2c(SCC(=O)NCC3CCCO3)nnc12 (centres undefined)	6	-1%	-6%
-0.9%	O=C(O)c1cc(NS(=O)(=O)c2ccc(F)cc2)cc(NS(=O)(=O)c2ccc(F)cc2)c1	/	1%	/
0.2%	O=C(COC(=O)C1=COCCO1)NCc1ccc(Cl)cc1	2	-21%	-3%
0.2%	CCOc1ccccc1NC(=O)c1cc(-c2cc(OC)c(OC)c(OC)c2)nc2ccccc12	/	-9%	18%
4.4%	Cc1ccc(NC(=O)COC(=O)Cc2csc(-c3ccc(Cl)cc3)n2)cc1C	9	8%	-17%
-0.6%	COc1ccc(C)cc1S(=O)(=O)Nc1cc2c3c(c1)CCC(=O)N3CCC2	/	4%	/
3.6%	CC1CC(N(C(=O)c2ccc(Cl)cc2)c2ccccc2)c2ccccc2N1C(=O)c1ccco1 (centres undefined)	-10	-5%	?
/	Cc1ccc2c(c1)C1CCCC3C1N2CC(=O)N3Cc1ccccc1 (centres undefined)	5	/	16%
-4.3%	CC(=O)N1CCC(C(=O)NC2CCCc3c2cnn3-c2cc(F)cc(F)c2)CC1 (centres undefined)	/	1%	3%
-1.6%	CCCn1nc(NS(=O)(=O)c2ccccc2)c2cc3cc(C)ccc3nc21	5	4%	-11%

(further entries)
Rango complex inh	SMILES	GLA inh pH 4.5	Rango release inh	miR-21 FLuc
0.9%	Cc1ccc(N(C(=O)CC2NC(=O)NC2=O)C2(C(=O)NC3CCCC3)CCCCC2)cc1 (centres undefined)	-1	1%	1%
0.6%	O=C(CN1C(=O)C2CC=CCC2C1=O)NCC(=O)Nc1ccc(F)c(F)c1 (centres undefined)	/	-6%	/
-1.5%	CCOc1ccc(/C=C/C(=O)OC(C)C(=O)NC2CCCCC2C)cc1OC (centres undefined)	/	0%	/
-1.0%	C[C@H](CO)N1C[C@H](C)[C@@H](CN(C)C(=O)Nc2ccc3c(c2)OCO3)Oc2ccc(NC(=O)Cc3ccccc3)cc2C1=O	/	8%	/
0.1%	COc1ccc(CNS(=O)(=O)c2c(C)[nH]c(C)c2C(=O)N2CCCC2)cc1	/	-2%	-1%
5.3%	Cc1ccc(-c2nc(N/N=C/c3cccnc3)c3ccccc3n2)cc1	-12	-10%	-15%
0.8%	COc1cccc(C(=O)N/N=C(\C)CC(=O)Nc2ccc(N(C)C)cc2)c1	/	0%	-18%
?	Cc1ccc(CNc2nc3ccccc3n3nnnc23)cc1	-9	-33%	-15%
-1.2%	O=C(Nc1ccc(CN2CCOCC2)cc1)c1cc(Br)ccc1Cl	/	-1%	5%
5.1%	O=C(CSc1n[nH]c(=O)[nH]c1=O)c1ccc([N+](=O)[O-])cc1	-4	-3%	1%
0.3%	CN1CCC(N(C)S(=O)(=O)c2ccc(Cl)cc2)CC1	/	-11%	-7%
1.7%	Cc1nc(/C=C/c2ccccc2)[nH]c(=O)c1-c1ccccc1	-10	16%	-23%

An excerpt from above, limited to Rango complex inh, GLA inh pH 4.5 and miR-21 FLuc.
molecule,Rango complex inh,GLA inh pH 4.5,miR-21 FLuc
O=C(Nc1ccc(CN2CCOCC2)cc1)c1cc(Br)ccc1Cl,-1.2%,/,5%
O=C(CSc1n[nH]c(=O)[nH]c1=O)c1ccc([N+](=O)[O-])cc1,5.1%,-4,1%

Source: PubChem

These rows are one share of the data; rates above refer to the full screens.
